# NS1 function inh: blocks influenza NS1 protein function; S. cerevisiae slowed by influenza A NS1, growth recovery by OD600; Potency, µM (titrated, usually from 46.1 µM), for inactives: at the top dose activity, positive = more growth; 270,000 compounds, 0.4% hits; AID 2326; active means well fitted rising curve with a large enough effect; inconclusive means small, poorly fitted or top-dose-only effect; inactive means no such curve, though single readings can be large or run the other way; note: nearly all actives have a fitted effect of over 50% in size
#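 Compounds were scored for reversing the slow growth caused by influenza A NS1 in S. cerevisiae, measured by optical density at 600 nm. Assay medium contained 2% galactose at pH 6.0; NS1-free yeast of the same strain were the positive control.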
# MARV entry inh: blocks Marburg virus binding to or entry into cells; Marburg virus pseudotyped entry inhibition, cell reporter; control for the full effect not named in the record; about a third of the inactives were read at about 46 µM; Potency, µM (titrated, usually from 37.8 µM), for inactives: at the highest dose activity change, negative = inhibition, hits mostly inhibitors; 300,000 compounds, 1.8% hits; active = well fitted inhibition curve with a large enough effect; inconclusive = small, poorly fitted or top-dose-only effect, or effect the other way; inactive = flat fitted curve, though single readings scatter; tested in HEK293 cells; about a fifth of its hits are not listed in these tables; note: % is set by controls: 0 for no effect and ±100 for the full control effect; luciferase read-out
# Cruzain inh noDet: cruzain (T. cruzi) inhibition without detergent. P25779. purified cruzain, Z-FR-AMC fluorescence, no detergent. Potency, µM, inactives show max response, negative = inhibition, actives largely listed as inhibitors. 200,000 compounds, 2.3% hits;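 note: plate controls were enzyme without inhibitor for no effect and buffer without enzyme for full effect; nearly all actives have a fitted effect of over 40% in size; top concentration of the series not given in the record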
# Target sequence (P25779 123-467 limits assumed): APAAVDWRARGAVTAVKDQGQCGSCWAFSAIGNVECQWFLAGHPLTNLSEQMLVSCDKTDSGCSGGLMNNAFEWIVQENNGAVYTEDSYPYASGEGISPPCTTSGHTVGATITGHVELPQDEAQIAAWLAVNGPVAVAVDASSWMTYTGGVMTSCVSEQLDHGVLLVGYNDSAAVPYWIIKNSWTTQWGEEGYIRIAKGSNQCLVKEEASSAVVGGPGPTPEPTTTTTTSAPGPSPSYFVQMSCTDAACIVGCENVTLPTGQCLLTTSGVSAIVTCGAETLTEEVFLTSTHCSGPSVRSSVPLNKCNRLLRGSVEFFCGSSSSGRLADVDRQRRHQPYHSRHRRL
#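 Detergent-free condition (0.00005% Triton X-100) in acetate buffer pH 5.5 with DTT. 1.5 nM enzyme and compound were pre-mixed 15 min, then 2 uM Z-FR-AMC substrate added; reaction progress from fluorescence change between first and third reads (60 s).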
# Cruzain inh Det: blocks cruzain activity in presence of Triton detergent. 200,000 compounds, 0.43% hits. P25779. purified cruzain, Z-FR-AMC fluorescence, 0.01% Triton. Potency, µM, inactives show max response, negative = inhibition, most hits filed as inhibitors;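 note: plate controls were neutral wells for no effect and buffer without enzyme for full effect; nearly all actives have a fitted effect of over 40% in size; top concentration of the series not given in the record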
#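 Cruzain (1.5 nM) preincubated 15 min at RT with compound in 100 mM sodium acetate pH 5.5, 5 mM DTT, 0.01% Triton X-100. Reaction started with 2 uM Z-FR-AMC; AMC fluorescence (ex 360/em 450 nm) change over 60 s gave rate.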
# Lassa entry inh: blocks Lassa virus binding to or entry into cells. Lassa virus pseudotype entry inhibition, cell reporter; control for the full effect not named in the record. 300,000 compounds, 1.2% hits. Potency, µM (doses to about 37.9 µM), inactives show at the highest dose activity change, negative = inhibition, actives largely listed as inhibitors. AID 540256; active means well fitted inhibition curve with a large enough effect; inconclusive means small, poorly fitted or top-dose-only effect, or effect the other way; inactive means flat fitted curve, though single readings scatter; tested in HEK293 cells; note: % is set by controls: 0 for no effect and ±100 for the full control effect; nearly all actives have a fitted effect of over 50% in size; luciferase read-out
# RE007 growth inh: less growth of the S. pombe RE007 Vpr strain; S. pombe RE007 Vpr strain, BacTiter-Glo ATP luminescence, 24 h; control for the full effect not named in the record; Potency, µM (doses to about 92.2 µM), for the others: at the top dose activity change, negative = less growth; 360,000 compounds, 0.21% hits; AID 651644; active = well fitted falling curve with a large enough effect; inconclusive = small, poorly fitted or top-dose-only effect; inactive = no such curve, though single readings can be large or run the other way;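 note: % is set by controls: 0 for no effect and ±100 for the full control effect; nearly all actives have a fitted effect of over 50% in size; the assay follows cell death caused by Vpr and the record does not say whether a fall means rescue or toxicity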
#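 Fission yeast RE007 carrying one integrated HIV-1 vpr copy, seeded at OD 0.01 in PMG+AL medium with 23 nL pinned compound. Grown 24 h at 30 degrees; viability read by BacTiter-Glo luminescence after 5 min.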
# 2A StopGo: lowers the luciferase signal of an FMDV 2A StopGo reporter | AID 1159524 | Potency, µM (highest dose often 57.9 µM), for inactives: at the highest dose signal change, negative = less light | 410,000 compounds, 1.2% hits | human cells with a luciferase reporter of 2A StopGo recoding; control for the full effect not named in the record; active = well fitted falling curve with a large enough effect; inconclusive = small, poorly fitted or top-dose-only effect; inactive = no such curve, though single readings can be large or run the other way; tested in HEK293T cells; note: % is set by controls: 0 for no effect and ±100 for the full control effect; nearly all actives have a fitted effect of over 45% in size; luciferase light after 4 h
# SARS PLP yeast: inhibitors of SARS-CoV papain-like protease in yeast; S. cerevisiae expressing SARS-CoV PLpro, growth rescue; control for the full effect not named in the record; Potency, µM (doses to about 32.9 µM), for the others: at the top dose activity, positive = growth rescue; 330,000 compounds, 0.19% hits; active means well fitted rising curve with a large enough effect; inconclusive means small, poorly fitted or top-dose-only effect; inactive means no such curve, though single readings can be large or run the other way; note: 0% is about no effect; nearly all actives have a fitted effect of over 55% in size; growth read by luminescence after 48 h
# Active calls of the source: *; ? = inconclusive; · = no result given; [ ] = dose if it differs, or a comment. Unless noted, calls come from the whole dose curve; as a rule, active = well fitted curve in the direction sought with a large enough effect; inconclusive = small, poorly fitted or top-dose-only effect, or another doubt; inactive = no such curve, though single readings can be large; an effect the other way counts as inactive or inconclusive. Potency is the fitted concentration of half-maximal effect.
SMILES,NS1 function inh,MARV entry inh,Cruzain inh noDet,Cruzain inh Det,Lassa entry inh,RE007 growth inh,2A StopGo,SARS PLP yeast
CC1Cc2ccccc2N1C(=O)Cn1c(=O)oc2cc(S(=O)(=O)N3CCCCC3)ccc21 (stereo not drawn),?,·,-26%,-1.8%,·,2%,-14%,5%
CCCN1CCC(=NNC(=O)c2ccc(Br)o2)CC1,-19%,-12%,0%,5.9%,2%,1%,·,-2%
O=C(Oc1coc(CSc2nnc(NC(=O)c3cccs3)s2)cc1=O)c1ccccc1,10%,?,?,-2.1%,7%,8%,20%,13%
CCc1nnc(NC(=O)CN2CCCC(C)C2)s1 (stereo not drawn),3%,·,·,·,·,6%,-4%,1%
Cn1c(NCc2ccccc2F)nc2ccccc21,·,?,-11%,-3.6%,?,·,42%[activator],·
Cc1ccc(CC(=O)N2CCN(C(=O)C3CCCO3)CC2)cc1 (stereo not drawn),1%,·,·,·,·,-4%,5%,-3%
Cc1ccc(NC(=O)c2cc(-n3cnnc3)ccc2Cl)cc1,-4%,14%,7%,1.8%,10%,20%,15%,-13%
Cc1ccc(C(=O)c2ccc([N+](=O)[O-])cc2)c(C)c1,-47%,-8%,4%,2.8%,-8%,-24%,-22%,-6%
CCCS(=O)(=O)N1CCN(C(=O)c2ccc(-c3ccccc3)cc2)CC1,1%,?,3%,2.5%,-6%,18%,?,-4%
S=C(NCCC1=CCCCC1)Nc1ccc(Cl)cc1,9%,?,1%,-6.7%,-4%,5%,59%[activator],2%
CCN(CC)CCn1cnc2c1c(=O)[nH]c(=O)n2Cc1ccccc1,-1%,·,·,·,·,0%,-12%,2%
O=C(C1CCC(CNS(=O)(=O)c2cccc3cccnc23)CC1)N1CCc2ccccc21 (stereo not drawn),-10%,·,-17%,5.1%,·,-9%,?,-6%
CCCc1ccc2oc(C(=O)N3CCN(c4cnccn4)CC3)c(C)c2c1,-61%,?,·,·,-20%[46.1 µM],3%,-12%,-12%
O=C(Cc1ccc(Cl)cc1)NCCS(=O)(=O)N1CCN(c2ccccc2)CC1,·,-18%[46.1 µM],·,·,-19%,3%,-28%,2%
COc1cc(C(=O)Nc2nnc(CC(=O)N3CCOCC3)s2)cc(OC)c1OC,-1%,-1%[46.1 µM],-13%,2.1%,-10%,-1%,19%,1%
O=C(NCCCc1nc2ccccc2n1Cc1ccccc1Cl)c1ccco1,·,5%[46.1 µM],-3%,-6.2%,-11%[46.1 µM],·,0%,·
CSc1ccc(S(=O)(=O)NCC(=O)OC2CCOC2=O)cc1[N+](=O)[O-] (stereo not drawn),·,0%[46.1 µM],·,·,-2%,2%,-20%,-6%
O=C(O)CSc1sc(=S)sc1SCC(=O)O,8%,-22%,0%,-4.6%,1%,-1%,-18%,0%
O=C(O)c1cccc(-n2cccc2/C=C\[N+](=O)[O-])c1,-8%,8%[46.1 µM],·,·,18%,8%,-6%,0%
CCNC(=O)/C(C#N)=C/c1c(N2CCN(c3ccccc3)CC2)nc2c(C)cccn2c1=O,-2%,-15%,·,·,?,3%,-18%,1%
Cc1cccc(NC(=O)c2ccc3c(c2)CCN3S(C)(=O)=O)c1,-9%,28%,·,·,?,5%,43%[activator],-9%
C/C=C/c1ccc(OCC(=O)N(CCOC)c2c(N)n(CCCC)c(=O)[nH]c2=O)c(OC)c1,·,-14%,·,·,-5%,-11%,-18%,2%
COc1cc(/C=C/C(=O)O)ccc1OCc1ccccc1C#N,-12%,0%,-7%,-0.6%,?,2%,6%,26%
Cc1ccc(CN2C(=O)c3ccccc3NC2c2ccccn2)cc1 (stereo not drawn),·,-14%[46.1 µM],·,·,-3%,18%,-5%,-3%
CCCCn1c(=O)c(C=Nc2cccnc2Cl)c(O)n(CCCCl)c1=O,0%,-6%,1%,-7.2%,-7%,12%,-10%,10%
O=C(CS(=O)c1ccc(C(F)(F)F)cc1[N+](=O)[O-])Oc1ccc(Cl)cc1 (stereo not drawn),-53%,?,-6%,-8.9%,-28%,-9%,-19%,-16%
Cc1ccc2nc(-c3ccccc3)cc(C(=O)N3CCN(c4ccccc4O)CC3)c2c1,·,?,·,·,?,-28%,9%,0%
COc1ccccc1CNC(=O)C1CCN(S(=O)(=O)c2cccc3cccnc23)CC1,-37%,-5%,2%,-2.6%,·,5%,0%,-5%
O=C1CCC(=O)N1Cc1c(Cl)cccc1Cl,0%,7%,·,·,23%,7%,-7%,1%
O=C(CSc1nnc(-c2ccccc2)c(-c2ccccc2)n1)Nc1ccccc1Cl,·,·,-21%,0.8%,-5%[46.1 µM],·,-30%,·
CS(=O)(=O)N(CC(=O)NCc1ccccc1)C1CCCCC1,4%[9.22 µM],1%,6%,0.3%,-4%,-5%,-12%,1%
COC(=O)c1ccc(Nc2c([N+](=O)[O-])ccc3nonc23)cc1,-1%,·,·,·,-2%,-7%,-3%,1%
CN(C)C(=O)C1C2NC(=S)N(c3cccc(Cl)c3)C1(C)Oc1ccc(Cl)cc12 (stereo not drawn),·,?,·,·,12%[46.1 µM],7%,52%[activator],23%
O=P1(NCCCl)OCCCN1CCCl (stereo not drawn),·,·,-4%,-1.5%,·,10%,-13%,·
COc1ccc2nc(NC(=O)c3nc(S(=O)(=O)Cc4ccc(C)cc4)ncc3Cl)sc2c1,·,?,-26%,-2.5%,?,·,-9%,·
c1ccc(CNCc2ccco2)cc1,4%,·,·,·,·,1%,-13%,1%
Cc1ccnc(NS(=O)(=O)c2ccc(Oc3ccccc3)cc2)c1,-2%,-33%,-25%,-3.1%,3%,-4%[3.69 µM],29%,8%
CC(Cc1cccnc1)NC(=O)c1cc(COc2ccc(F)cc2F)on1 (stereo not drawn),3%,-27%,·,·,3%,-26%,-10%,-1%
COc1ccc(NC(=O)COc2ccccc2C#N)c(S(=O)(=O)N2CCCCC2)c1,-14%,?,12%,-6.2%,?,31%,-22%,-4%
Cc1ccccc1OCc1nnc(SCc2cc(=O)c3cc(F)ccc3[nH]2)n1C,·,·,-8%,3.5%,-13%[46.1 µM],·,?,·
N#CCCN(Cc1ccccc1)C(=O)c1cccs1,12%,3%[46.1 µM],·,·,3%,12%,19%,0%
CC(NC(=O)c1cc2c(=O)n3ccccc3nc2n(C(C)C)c1=N)c1ccccc1 (stereo not drawn),·,-8%[46.1 µM],11%,-13%,13%[46.1 µM],·,-23%,·
O=C(Nc1ccccc1)C1=C(c2ccccc2)S(=O)(=O)CCS1(=O)=O,-5%,2.8µM*,·,·,?,3%,14µM*,4%
CCc1nc2c(cnn2-c2ccc(F)cc2)c(=O)n1-c1ccc(N2CCC(C)CC2)cc1,3%,·,-26%,-7.3%,·,-7%,?,-2%
COc1cccc(CN2C(=O)C3(SCC(=O)N3c3ccc(C(C)C)cc3)c3ccccc32)c1 (stereo not drawn),·,·,?,-5.8%,-8%[46.1 µM],·,?,·
O=C(CC(=O)Nc1ccc(F)cc1F)Nc1ccc(F)cc1F,1%,·,·,·,·,-11%,19%,-1%
COc1ccc(OC)c(S(=O)(=O)N2CCC(NC(=O)c3ccccc3)CC2)c1,2%,·,·,·,·,-3%,-28%,1%
CCOC(=O)C1CCN(Cc2cn3c(-c4ccc(OC)cc4)nnc3s2)CC1,·,·,-8%,2.3%,9%[46.1 µM],·,?,·
CCOC(=O)C1CCCN(C(=O)COc2ccc(S(=O)(=O)N(CC)c3ccccc3)cc2)C1 (stereo not drawn),·,7%,·,·,21%,-12%,-3%,-1%
COc1ccc(C(=O)N2CCN(c3cnn(-c4ccccc4)c(=O)c3Cl)CC2)cc1,·,7%[46.1 µM],·,·,13%[46.1 µM],-1%,1%,3%
# Next records follow.
SMILES,NS1 function inh,MARV entry inh,Cruzain inh noDet,Cruzain inh Det,Lassa entry inh,RE007 growth inh,2A StopGo,SARS PLP yeast
COc1cccc(OCc2cc(C(=O)N3CCN(C)C(c4ccccc4)C3)no2)c1 (stereo not drawn),-39%,·,·,·,·,-5%,12%,-9%
COc1ccccc1CN1CC(C(=O)NCCc2ccc(Cl)cc2)CC1=O (stereo not drawn),0%,20%[46.1 µM],·,·,8%[46.1 µM],2%,-6%,-4%
CC(O/N=C/c1ccccc1OC(F)F)C(=O)Nc1cccc(S(=O)(=O)N2CCOCC2)c1 (stereo not drawn),-13%,?,?,-1.4%,-16%,8%,26%,23%
CC(NC(=O)CSc1n[nH]c(-c2ccccc2)n1)c1nc2ccccc2n1C (stereo not drawn),·,·,-1%,4.6%,-18%[46.1 µM],·,-17%,·
COc1ccc(N2CCN(C(=O)C(=O)c3cn(CC(=O)N4CCCCCC4)c4ccccc34)CC2)cc1,0%,-21%,·,·,-19%,5%,0%,-6%
Cc1ccccc1NC(=O)CCS(=O)(=O)c1ccc(Br)cc1,3%,·,·,·,·,-2%,-23%,-1%
Cc1ccc2c(CC(=O)N3CCN(c4cccc(Cl)c4)CC3)coc2c1,·,?,-11%,-19%,?,·,-20%,·
Cc1cc(C)cc(NS(=O)(=O)c2cc(Br)cnc2N)c1,-6%,?,·,·,-18%[46.1 µM],0%,62%[activator],-2%
COc1ccc(-c2nnc(SCC(=O)c3ccc([N+](=O)[O-])cc3)o2)cc1OC,·,-3%[46.1 µM],11%,0.0%,25%[46.1 µM],·,-7%,·
Cc1nn(C)c2ncc(C(N)=O)c(Oc3cccnc3)c12,0%,-4%[46.1 µM],·,·,-19%,25%,-4%,1%
Cc1ccc2nc(NC(=O)c3cc(=O)c4cc(Cl)ccc4o3)sc2c1,·,-3%[46.1 µM],-1%,-2.9%,?,·,2%,·
CC1CCCN(C(=S)SCC(=O)c2cc(Br)cc(Br)c2O)C1 (stereo not drawn),-35%,15%[46.1 µM],·,·,14%,-29%,-15%,0%
Cc1ccc(SCC(=O)Nc2cc(S(=O)(=O)N3CCCCC3)ccc2C)cc1,·,?,·,·,?,3%,9%,-1%

# Screening data: PubChem, National Center for Advancing Translational Sciences (NCATS)
